# Screening results as filed in PubChem.
# NPYLR7 ag: mosquito NPYLR7 agonism. HEK293T NPYLR7/Galpha15, GCaMP6s calcium fluorescence. activation, % at 10 µM. actives 0.15% (n = 270,000); in the data active = activation above about 40%;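 note: 0% = vehicle and 100% = reference agonist at the receptor; some compounds past the cut are filed as inactive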
# NPYLR7 ag max-min: recorded beside NPYLR7 ag, whose call it bears; activation, %; measured here: Max-Min RFU normalised activation; some inactives read as strong as hits;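 span of the calcium signal over five minutes; 0% = vehicle and 100% = native peptide agonist; compound fluorescence can raise it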
# * = called active by the depositor; & = joins results of further samples; ! = a repeat was not active. A portion of the library; count on the stated rates, not on these rows.
SMILES,NPYLR7 ag,NPYLR7 ag max-min
O=C(CN(CC1CCCO1)C(=O)c1cccc([N+](=O)[O-])c1)N(Cc1ccc2c(c1)OCO2)Cc1ccco1 (stereo not given),-2,13
Cc1cccc(C)c1Oc1ccccc1NCc1c(C)noc1C,15,12
Cc1cccnc1[C@H](C)Nc1ncnc2c1CCN(C(=O)c1cccnc1)C2,11,-4
CCNC(=S)N1CCC(C(NS(=O)(=O)c2ccccc2)C(=O)NCc2ccc(F)cc2)CC1 (stereo not given),-2,-1
CC(=O)OC1CC(C)(C)N(OC(=O)c2ccc(N)cc2)C(C)(C)C1,0,-2
O=C(NCc1cccnc1)c1coc(CN(CCc2c[nH]c3ccccc23)Cc2cccc(Cl)c2Cl)n1,27,18
O=C(NC1CC(=O)N(Cc2cccc(F)c2)C1)C1CCCCCC1 (stereo not given),5,6
CCN(CC)c1ncccc1CNC(=O)c1ccc(C)cc1O,-3,-2
CC(C)N1CCC(N2CCc3c(c(C(=O)N4CCOCC4)nn3CCc3ccccc3)C2)CC1,16,1
COc1ccc(/C=C2\N=C(c3ccc(Br)o3)OC2=O)cc1,-6,-10
COc1cc(=O)n(-c2ccccc2C)nc1C(=O)Nc1ccccc1O,8,9
Cc1ccccc1S(=O)(=O)NC(=O)C1(C)CCN1C(=O)C1(c2ccccc2)CC1 (stereo not given),5,5
COc1ccc(CCN(C)c2cc(Oc3ccc(F)cc3C)ncn2)cc1OC,9,9
Cc1ccc2[nH]cc(-c3cnc(N)cn3)c2c1,10,5
Cc1cc(C)c2c(c1)OC(N1CCOCC1)C(C)(C)C2O (stereo not given),3,1
COC(=O)C1=C(C)N=c2s/c(=C/c3ccc(Cl)cc3Cl)c(=O)n2C1c1ccccc1 (stereo not given),-4,-10
Nc1cc(=O)nc(SCC(=O)N2CCN(c3ccccc3)CC2)n1-c1cccc(C(F)(F)F)c1,0,0
CCOCCn1ccc2c(NC(=O)C3CCC3)c(OC(=O)N(CC)CC)ccc21,-1,-6
COc1ccc(C(=O)N2CCC(c3nn(C)c(=O)n3-c3ccccc3)CC2)o1,3,0
CCOC(=O)NC(NC(=O)OCC)c1ccccc1Cl,2,7
COC(=O)c1ccc(CNC(=O)CC(NC(C)=O)c2ccc(C)cc2)cc1 (stereo not given),3,3
Cc1cc(C)n(-c2cc(NCCNC(=O)COc3ccc(Cl)cc3Cl)ncn2)n1,-5,-13
CC(Nc1ccc([N+](=O)[O-])cc1S(=O)(=O)N1CCOCC1)c1ccc(Cl)cc1 (stereo not given),-4,-6
COCCNC(=O)C(NC(=O)c1cccs1)C1CCN(S(=O)(=O)c2ccc(C)cc2)CC1 (stereo not given),6,9
COc1ccc2c(c1)C(C(=O)N1CC(c3ccncc3)C1)CC(=O)N2 (stereo not given),2,0
CC1CN(c2ccc(NC(C)c3nc(C(C)C)no3)cc2F)CC(C)O1 (stereo not given),11,8
CCNC(=NCC(C)N1CCN(C)CC1)NCC (stereo not given),-2,-3
CNCCCc1cc(-c2ccc(F)cc2)no1,26,16
CCn1ccc(C(=O)N(Cc2ccccn2)c2nc3cc(C)cc(C)c3s2)n1,-3,-6
C=CCn1c(=NC(=O)c2ccc(N3C(=O)CCC3=O)cc2)sc2cccc(OCC)c21,3,2
COc1cccc2cc(C(N)=O)c(=Nc3ccccc3F)oc12,-3,-7
Cc1cc(C)n(Cc2cc(C(=O)NCCc3ccco3)n[nH]2)n1,5,-1
COc1ccc(C(=O)Nc2ccccc2F)cc1[N+](=O)[O-],2,-1
Cc1nc(C)c(S(=O)(=O)NC(=O)c2ccsc2)s1,-2,-5
C=CCNC(=O)NC1CCN(c2ccccc2C(=O)N2CCCC2)CC1,0,8
Cc1nc2n(n1)C(=O)C(C(c1ccccc1F)N1CCCC(C)C1)S2 (stereo not given),-2,-4
CCOC(=O)C1=C(COC(=O)c2c(C)noc2C(C)C)NC(=O)NC1C (stereo not given),12,11
CN(C)CC1(O)CCCN(C(=O)c2cnc3c(c2)ncn3C)C1 (stereo not given),1,-3
CCCCNC(=S)NN=Cc1ccc(C)o1,1,-1
Cn1ccc2c(-c3ccc4nc(CO)[nH]c4c3)ccnc21,2,-3
Cc1c(Cl)cccc1NC(=O)CSc1nc(=O)n(CCN(C)C)c2c1CCCC2,-4,-1
COc1ccc(N2CCN(c3cc(C(=O)Nc4ccncc4)ncn3)CC2)cc1OC,-4,-11
c1ccc(CCNc2ncnc3[nH]ncc23)cc1,3,1
CCCCN(CC(=O)N(CCc1c[nH]c2ccccc12)Cc1ccccc1)S(=O)(=O)c1ccc(Cl)c([N+](=O)[O-])c1,31,24
COc1ccc(-n2c(N)c(C#N)c(-c3ccc(C)cc3)c(C#N)c2=O)cc1,-2,8

# 5 structures out of the list, sorted by count of non-hydrogen atoms, rising.
SMILES,NPYLR7 ag,NPYLR7 ag max-min
CNCCCc1cc(-c2ccc(F)cc2)no1,26,16
CCNC(=NCC(C)N1CCN(C)CC1)NCC (stereo not given),-2,-3
CCOC(=O)NC(NC(=O)OCC)c1ccccc1Cl,2,7
C=CCn1c(=NC(=O)c2ccc(N3C(=O)CCC3=O)cc2)sc2cccc(OCC)c21,3,2
O=C(NCc1cccnc1)c1coc(CN(CCc2c[nH]c3ccccc23)Cc2cccc(Cl)c2Cl)n1,27,18

# (listing goes on)
SMILES,NPYLR7 ag,NPYLR7 ag max-min
Cc1ccc(C)c(OCCNC2CCN(C(=O)c3ccncc3)CC2)c1,7,2
O=C(CSc1nc(Cl)cc(N2CCN(C(=O)C3CC3)CC2)n1)N(CCc1ccccc1)Cc1ccccc1,-4,6
CC(=O)OC(C(=O)NCC1Cc2cccc(F)c2O1)c1ccccc1 (stereo not given),3,-2
CN(C)c1cccc(C(=O)N2CCN(c3ncccc3NC(=O)c3ccc4c(c3)OCO4)CC2)c1,5,2
CCc1cc(=O)[nH]c2n[nH]c(=S)n12,-3,-2
COc1ccc(C2=CSC3=NS(=O)(=O)CCN23)c(OC)c1,1,3
CCC(Cc1ccccc1)N(C)C(=O)c1ccc(C)c(F)c1 (stereo not given),-2,0
CCC1=NN=C(c2ccc(F)cc2)C(c2c(C)[nH]c3ccccc23)N1O (stereo not given),3,4
Fc1cccc(-c2cnn3c(NCc4ccc5c(c4)OCO5)ccnc23)c1,-1,-6
CCC1(C(=O)c2ccc(Br)cc2)C2C(C)(C)OC(=O)C21C(=O)OC (stereo not given),-2,51
NCC1CN(Cc2ccccc2Cn2cccn2)CCO1 (stereo not given),-1,-1
COc1ccc(N2CCN(C(=O)c3cc(-c4cccc(OC)c4)nn3-c3ccc(Cl)c(Cl)c3)CC2)cc1,-3,8
CS(=O)(=O)N1CCCCC1C(=O)N(Cc1ccccc1)c1nc2c(F)cccc2s1 (stereo not given),2,-1
Cc1cc(C)c(S(=O)(=O)N2CCCC2C(=O)Nc2nnc(-c3ccc(F)cc3)s2)c(C)c1 (stereo not given),20,14
C=CCNC(=O)N1C[C@@H](C(=O)OCC)[C@@H]2Oc3ccc(Cl)cc3[C@@H]21,-1,8

# In the list so far, these contain bromine.
SMILES,NPYLR7 ag,NPYLR7 ag max-min
COc1ccc(/C=C2\N=C(c3ccc(Br)o3)OC2=O)cc1,-6,-10
CCC1(C(=O)c2ccc(Br)cc2)C2C(C)(C)OC(=O)C21C(=O)OC (stereo not given),-2,51

# Further entries follow.
SMILES,NPYLR7 ag,NPYLR7 ag max-min
O=C(Nc1cc(C(F)(F)F)ccc1Cl)c1cc2ccc(O)cc2oc1=O,-6,-13
CSc1nc(N)nc(SCc2ccc(Cl)c(Cl)c2)c1C#N,-3,-5
CC(Sc1n[nH]c(CC2CCCC2)n1)C(=O)Nc1ccc(S(=O)(=O)N2CCOCC2)cc1 (stereo not given),4,-1
Cc1cc(S(=O)(=O)N2CCCCC2CCNC(=O)C(=O)NCCc2ccco2)ccc1F (stereo not given),5,1
Cc1nn(-c2ccccc2)nc1C(=O)Nc1cccc(S(C)(=O)=O)c1,3,24
O=C(c1cnccn1)N(Cc1ccccc1)[C@H]1C[C@H]2CCOC[C@@]2(c2ccccc2)C1,5,16
CC(=O)c1cc(CN2CC[C@@H](N3CCN(c4ccccn4)CC3)[C@H](O)C2)cs1,-3,-8
CCCc1nc(CN(CC)C(=O)c2cc(C)nc3c(C)cccc23)no1,0,-3
CC(C)(C)c1ccc(O)c(NC(=O)C2CCN(C(=O)c3ccc(F)cc3)CC2)c1,3,1
O=[N+]([O-])c1ccc(N2CCOCC2)cn1,0,6
COc1cc(C(=O)Nc2nc(-c3ccc(I)cc3)cs2)cc(OC)c1OC,1,-4
Brc1ccc(Nc2nc3ccccc3n3nnnc23)cc1,2,0
N#CC1C(=O)Oc2ccc(N)cc2C1c1ccccc1 (stereo not given),14,8
CCSc1nc(N2CCOCC2)c2cnn(CCNC(=O)c3cc(-c4cccs4)[nH]n3)c2n1,3,1
COc1ccc(-c2nc3ccc(C4=NNC(=O)CC4C)cc3[nH]2)cc1 (stereo not given),-12&-4,-24&-11

# Exported as labelled records: 2 of the compounds above
> CCCc1nc(CN(CC)C(=O)c2cc(C)nc3c(C)cccc23)no1
  NPYLR7 ag = 0	NPYLR7 ag max-min = -3

> COc1cc(C(=O)Nc2nc(-c3ccc(I)cc3)cs2)cc(OC)c1OC
  NPYLR7 ag = 1	NPYLR7 ag max-min = -4

# Entries of single compounds from above. Values in the order: NPYLR7 ag	NPYLR7 ag max-min
# `COc1ccc(C2=CSC3=NS(=O)(=O)CCN23)c(OC)c1` reads 1	3
# `COC(=O)C1=C(C)N=c2s/c(=C/c3ccc(Cl)cc3Cl)c(=O)n2C1c1ccccc1` (stereo not given) reads -4	-10
# `COc1ccc(N2CCN(c3cc(C(=O)Nc4ccncc4)ncn3)CC2)cc1OC` reads -4	-11
# `CC(C)(C)c1ccc(O)c(NC(=O)C2CCN(C(=O)c3ccc(F)cc3)CC2)c1` reads 3	1
# `CC(Sc1n[nH]c(CC2CCCC2)n1)C(=O)Nc1ccc(S(=O)(=O)N2CCOCC2)cc1` (stereo not given) reads 4	-1

# The list continues.
SMILES,NPYLR7 ag,NPYLR7 ag max-min
CN1CCC(=C2c3ccccc3Sc3ccccc32)CC1,54*!,48*!
COCCCNC(=O)C(NC(=O)c1ccc(OC)cc1)C1CCN(C(=O)Cc2ccccc2)CC1 (stereo not given),8,5
Cc1nccn1-c1ccc(NC(=O)C2CCCN(CCCn3cccn3)C2)cc1 (stereo not given),18&-6,11&-6
CCOC(=O)c1cccc(NC(=O)c2c(-c3ccccc3Cl)noc2C)c1,1,-1
CCOC(=O)CCc1c(C)[nH]n(-c2nc(C)cc(C)n2)c1=O,2,-3
Cc1nc2ccc([N+](=O)[O-])cc2s1,1,-2
CCCN1CCN(C(=O)c2cn(CCOC)cc3c(=O)n(-c4ccccc4)nc2-3)CC1,-3,-8
COCCNC(=O)c1ccc(OC2CCN(C(=O)C3=C(C)OCCO3)CC2)c(Cl)c1,4,0
O=C(NNc1nc2cc(F)ccc2n2cccc12)c1cnccn1,4,-5
Cc1ccnc(CC(C)N(C)C(=O)c2ccc3[nH]ccc3c2)c1 (stereo not given),-5,-10
Cc1cc(C(=O)N2CCN(S(=O)(=O)c3ccc(Cl)s3)CC2)c(C)o1,17,8
CCC(CC)C(=O)Nc1cccc(-c2ccc3nncn3n2)c1,-18,-11
CCOc1cc(C#N)cc(Br)c1OCC(=O)O,3,3
Cc1ccc(CSc2nc(Oc3cccc(C)c3)cc(C(F)(F)F)n2)cc1,-5,8
O=C(Cn1cnc2ccc(Br)cc2c1=O)N1CCNC1=O,0,17
O=C(c1cc(Cl)ccc1[N+](=O)[O-])N(Cc1cccnc1)c1nc2ccc(F)cc2s1,-18,-10
CCSc1ccc(NC(=O)c2cc(C)n(C3CC3)c2C)cn1,2,0
CC1CCCN(C(=O)NCC(=O)N2CCc3ccccc3C2)C1 (stereo not given),3,-1
CC(Cl)C(=O)Nc1nnc(SCC(=O)c2ccc(F)c(F)c2)s1 (stereo not given),19,23
CCCc1nc(N2CCCN(C(=O)/C=C/c3ccc([N+](=O)[O-])cc3)CC2)c2cnn(-c3ccccc3)c2n1,25,28
CCCCCc1ccc(C(=O)N(CCCOC)CC(=O)N2CCc3sccc3C2c2ccccc2C)cc1 (stereo not given),18,26
CC1(C(=O)NS(=O)(=O)c2cccs2)CCN1C(=O)CC1CCCC1 (stereo not given),-1,-8
Cc1cc(C)n(-c2ccc(NC(=O)C3CCN(C(=O)CCCc4cccs4)CC3)cc2)n1,5,6
COCCCN(Cc1c(-c2ccc(F)cc2)noc1N1CCN(C)CC1)S(=O)(=O)c1ccc(C)cc1,-5,-6
CCNC(=O)C1CCN(Cc2nnc(-c3cccc(Cl)c3)o2)CC1,22,11
CCOC(=O)c1[nH]c2c(c1C)C(=O)C(C(=O)OC)C(C)C2 (stereo not given),9,0
C[C@@H]1C(=O)O[C@H]2[C@H]1CC[C@@]1(C)Cc3sc(NS(=O)(=O)c4ccc5c(c4)CN(C(=O)C(F)(F)F)CC5)nc3[C@@H](C)[C@H]21,-9,-17
CC(C)(C)c1nc2ccc(NS(=O)(=O)c3ccccc3)cc2[nH]1,4,-6
COCCCNC(=O)Nc1ccc(N2CCc3sccc3C2)cc1,-1,2
O=C(CSc1ccc(-c2ccccc2)nn1)N1CCN(c2ccccc2)CC1,1,-1
O=C(NCC1CCCN(C(=O)Cc2ccccc2Cl)C1)c1ccc(F)cc1 (stereo not given),-4,-5
CCCc1[nH]n(-c2cccc(C)c2C)c(=O)c1C1=C([n+]2ccccc2)C(=O)N(c2cccc(C)c2)C1=O,4,2
O=c1[nH]cc([N+](=O)[O-])c2nc[nH]c12,-8,-14
CCOC(=O)C1(Cc2ccc(Cl)cc2)CCN(Cc2cnc(SC)nc2)CC1,13,16
Cc1cccc(-c2nc(C)c(C)c(N3CCN(C(=O)Nc4ccc(C(C)C)cc4)CC3)n2)c1,18,15
Cc1c(CN2CCCC(c3[nH]ncc3CC(C)C)C2)cnn1C (stereo not given),-1,-1
NC(=O)c1ccc(S(=O)(=O)N2CCCC2c2cccs2)cc1 (stereo not given),-1,-3
COc1nn(C)cc1C(=O)NCCn1ncc2c(=O)n(Cc3cccc(C)c3)cnc21,-6,-11
Cc1cccc(NC(=O)CN(C)C(=O)CCN2C(=O)COc3ccccc32)c1C,3,2
CN1CC(=O)N(CC(=O)N(C2CCCCC2)C2CCCCC2)C1=O,14,10
CCCCCCn1c(SCc2nnc(C)o2)nc2sc3c(c2c1=O)CCC3,-12,-11
